# Screens (PubChem BioAssay)
# 2A StopGo = FMDV 2A StopGo reporter, luciferase signal. human cells with a luciferase reporter of 2A StopGo recoding; control for the full effect not named in the record. Potency, µM (top dose mostly 57.9 µM), for inactives: top-dose signal change, negative = less light. 1.2% of 410,000 active; active = well fitted falling curve with a large enough effect; inconclusive = small, poorly fitted or top-dose-only effect; inactive = no such curve, though single readings can be large or run the other way; tested in HEK293T cells; also: % is scaled to controls: 0 for no effect and ±100 for the full control effect; nearly all actives have a fitted effect of over 45% in size; luciferase light after 4 h
# NS1 inh = blocks influenza NS1 protein function; Potency, µM (doses to about 46.1 µM), for the others: at the top dose activity, positive = more growth; S. cerevisiae slowed by influenza A NS1, growth recovery by OD600; 0.4% of 270,000 active; also: actives are rising curves; nearly all actives have a fitted effect of over 50% in size
#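 Compounds were scored for reversing the slow growth caused by influenza A NS1 in S. cerevisiae, measured by optical density at 600 nm. Assay medium contained 2% galactose at pH 6.0; NS1-free yeast of the same strain were the positive control.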
# Cruzain inh Det = blocks cruzain activity in presence of Triton detergent. P25779. purified cruzain, Z-FR-AMC fluorescence, 0.01% Triton. Potency, µM, for the others: max response, negative = inhibition, usual class: inhibitors. 0.43% of 200,000 active. AID 1478; active = well fitted curve in the direction sought with a large enough effect; inconclusive = small, poorly fitted or top-dose-only effect, or another doubt; inactive = no such curve, though single readings can be large; an effect the other way counts as inactive or inconclusive;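 also: plate controls were neutral wells for no effect and buffer without enzyme for full effect; nearly all actives have a fitted effect of over 40% in size; top concentration of the series not given in the record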
# Target sequence (P25779 123-467 limits assumed): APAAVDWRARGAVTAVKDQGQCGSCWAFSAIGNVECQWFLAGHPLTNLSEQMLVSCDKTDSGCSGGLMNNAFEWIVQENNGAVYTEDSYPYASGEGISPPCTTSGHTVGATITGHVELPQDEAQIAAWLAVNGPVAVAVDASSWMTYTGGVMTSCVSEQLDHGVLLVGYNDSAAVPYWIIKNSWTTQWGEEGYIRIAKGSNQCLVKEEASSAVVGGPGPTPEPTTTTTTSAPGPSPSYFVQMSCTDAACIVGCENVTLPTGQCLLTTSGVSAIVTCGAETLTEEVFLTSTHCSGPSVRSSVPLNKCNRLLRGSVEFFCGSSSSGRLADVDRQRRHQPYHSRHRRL
#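 Z-FR-AMC hydrolysis (2 uM substrate) by cruzain (1.5 nM) monitored kinetically at ex 360/em 450 nm after 15 min room-temperature compound exposure; 0.01% Triton X-100, pH 5.5, 5 mM DTT.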
# SARS PLpro yeast = blocks SARS-CoV papain-like protease in a yeast assay | Potency, µM (titrated, usually from 32.9 µM), inactives show at the highest dose activity, positive = growth rescue | S. cerevisiae expressing SARS-CoV PLpro, growth rescue; control for the full effect not named in the record | AID 485353 | 0.19% of 330,000 active; also: 0% is about no effect; nearly all actives have a fitted effect of over 55% in size; growth read by luminescence after 48 h
# Cruzain noTriton = blocks cruzain activity in detergent-free assay; P25779; purified cruzain, Z-FR-AMC fluorescence, no detergent; Potency, µM, for inactives: max response, negative = inhibition, most hits filed as inhibitors; 2.3% of 200,000 active; AID 1476; active = well fitted curve in the direction sought with a large enough effect; inconclusive = small, poorly fitted or top-dose-only effect, or another doubt; inactive = no such curve, though single readings can be large; an effect the other way counts as inactive or inconclusive;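 also: plate controls were enzyme without inhibitor for no effect and buffer without enzyme for full effect; nearly all actives have a fitted effect of over 40% in size; top concentration of the series not given in the record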
#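 Purified cruzain at 1.5 nM, pre-incubated 15 min with compound at room temperature in 100 mM sodium acetate pH 5.5, 5 mM DTT, 0.00005% Triton X-100. Reaction started with 2 uM Z-FR-AMC; AMC fluorescence increase over 60 s gives rate.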
# MARV entry inh = Marburg virus entry inhibition; Marburg virus pseudotyped entry inhibition, cell reporter; control for the full effect not named in the record; about a third of the inactives were read at about 46 µM; Potency, µM (doses to about 37.8 µM), for the others: at the top dose activity change, negative = inhibition, usual class: inhibitors; 1.8% of 300,000 active; AID 540276; active = well fitted inhibition curve with a large enough effect; inconclusive = small, poorly fitted or top-dose-only effect, or effect the other way; inactive = flat fitted curve, though single readings scatter; tested in HEK293 cells; about a fifth of its hits are not listed in these tables; also: % is scaled to controls: 0 for no effect and ±100 for the full control effect; luciferase read-out
# RE007 growth inh = less growth of the S. pombe RE007 Vpr strain | S. pombe RE007 Vpr strain, BacTiter-Glo ATP luminescence, 24 h; control for the full effect not named in the record | Potency, µM (doses to about 92.2 µM), inactives show top-dose activity change, negative = less growth | 0.21% of 360,000 active; active = well fitted falling curve with a large enough effect; inconclusive = small, poorly fitted or top-dose-only effect; inactive = no such curve, though single readings can be large or run the other way;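 also: % is scaled to controls: 0 for no effect and ±100 for the full control effect; nearly all actives have a fitted effect of over 50% in size; the assay follows cell death caused by Vpr and the record does not say whether a fall means rescue or toxicity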
#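 Fission yeast strain RE007, carrying one chromosomally integrated HIV-1 vpr copy, was seeded at OD 0.01 in PMG+AL medium with 23 nL pinned compound. After 24 h at 30 °C and 99% humidity, viability was read by BacTiter-Glo luminescence.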
# LASV entry inh = blocks Lassa virus binding to or entry into cells | Lassa virus pseudotype entry inhibition, cell reporter; control for the full effect not named in the record | Potency, µM (series often up to 37.9 µM), without a hit: at the top dose activity change, negative = inhibition, usual class: inhibitors | 1.2% of 300,000 active | AID 540256; active means well fitted inhibition curve with a large enough effect; inconclusive means small, poorly fitted or top-dose-only effect, or effect the other way; inactive means flat fitted curve, though single readings scatter; tested in HEK293 cells; also: % is scaled to controls: 0 for no effect and ±100 for the full control effect; nearly all actives have a fitted effect of over 50% in size; luciferase read-out
# Active calls of the source: *; u = inconclusive; x = not tested or not shown; & = joins results of further samples; [ ] = remark or other dose. Unless noted, calls follow the shape of the dose curve; as a rule, active means well fitted rising curve with a large enough effect; inconclusive means small, poorly fitted or top-dose-only effect; inactive means no such curve, though single readings can be large or run the other way. Potency is read from the fitted curve at half-maximal effect.
SMILES,2A StopGo,NS1 inh,Cruzain inh Det,SARS PLpro yeast,Cruzain noTriton,MARV entry inh,RE007 growth inh,LASV entry inh
COC(=O)c1ccc(NC(=O)CCS(=O)(=O)c2ccc3c(c2)NC(=O)C(C)S3)cc1 (stereo not drawn),-14%,5%,x,4%,x,x,0%,x
CNS(=O)(=O)c1cn(CC(=O)N2CCN(c3ccc(OC)cc3)CC2)cc1S(=O)(=O)NC,-2%,x,-5.7%,x,7%,x,x,-6%[46.1 µM]
OCCCNc1ncnc2sc(-c3ccccc3)cc12,u,x,x,0%,x,u,-11%,u
O=C(Nc1ccccc1)OCC1COC(c2ccccc2)(c2ccccc2)O1 (stereo not drawn),-17%,x,x,x,x,-13%,18%,u
Cc1ccc2oc(-c3ccc(Cl)c(NC(=O)c4ccc(OC(C)C)cc4)c3)nc2c1,51%[activator],x,-0.2%,x,-11%,26%[46.1 µM],x,0%[46.1 µM]
O=Cc1cc2ccccc2nc1SCCCF,0%,x,x,-2%,x,8%[46.1 µM],1%,u
Cc1cc2cc(C)c(SCC(=O)NCc3ccco3)nc2cc1C,6%,-7%,x,11%,x,u,1%,17%[46.1 µM]
COC(=O)c1ccccc1OCC(=O)NC1CCCCC1,21%,-49%,-2.1%,-8%,8%,u,4%,47%[14.3 µM]
COC(=O)c1ccc(COc2c(F)c(F)cc(F)c2F)o1,3%,0%,x,1%,x,x,3%,x
CCC1S/C(=N/C(=O)NC2CCCCC2)NC1=O (stereo not drawn),54%[activator],1%,0.1%,2%,9%,21%,13%,16%
COC(=O)c1ccc(NC(=O)C(=O)NCC(c2cccnc2)N2CCc3ccccc32)cc1 (stereo not drawn),11µM*,x,-5.5%,x,-1%,x,x,-14%[46.1 µM]
CSCCC(NC(=O)C1CCC(C)CC1)C(=O)N1CCN(c2ccccn2)CC1 (stereo not drawn),5%,-12%,2.8%,-1%,1%,u,-13%,-5%
O=C(O)C1C2CCC(O2)C1C(=O)NCc1ccc(Cl)cc1 (stereo not drawn),-13%,0%,0.0%,3%,11%,5%,3%,-1%
CCC(C)NC(=O)Cn1c(=O)n(Cc2ccc(C(=O)NCc3ccc(C)cc3)cc2)c(=O)c2ccccc21 (stereo not drawn),0%,x,-0.6%,x,1%,5%[46.1 µM],x,-17%[46.1 µM]
CCOC(=O)Cn1c(=O)c(-c2ccccc2NC)nc2ccccc21,0%,-11%,-0.3%,4%,-6%,-27%,9%,-4%
CCCNC(=O)COc1ccc2c(=O)c(Oc3ccccc3F)coc2c1,-27%,-13%,4.1%,-9%,2%,-25%,2%,-8%
Cc1ccc(S(=O)(=O)c2cc3c(=O)n4ccccc4nc3n(CC3CCCO3)c2=N)cc1C (stereo not drawn),19%,8.9µM*,32µM*,-5%,-28%,u,x,1%&8%
Cc1cccc(NC(=O)CCNC(=O)c2ccc(Br)cc2)c1,41%[activator],8%,x,-2%,x,u,6%,-13%[46.1 µM]
CCC(CC)C(=O)Nc1cccc(C(=O)N2CCCCCC2)c1,x,-10%,-2.8%,1%,12%,-11%,-10%,-4%
CN1C(=O)/C(=C2\SC(=S)N(CCCCCC(=O)O)C2=O)c2ccccc21,-2%,1%,x,-6%,x,x,-12%,x
COc1ccc(CN2CCCC(C(=O)c3cccc(OC(C)C)c3)C2)cc1Cn1cccn1 (stereo not drawn),u,0%,x,1%,x,x,1%,x
CSCC[C@H](NC(=O)c1cccc([N+](=O)[O-])c1C)c1nc2ccccc2[nH]1,7%,-2%,14µM*,-6%,7%,-10%,13%,-5%
COc1cc(C(=O)Nc2cccc(-c3cn4cccnc4n3)c2)cc(OC)c1OC,-12%,x,x,5%,x,0%[46.1 µM],13%,2%[46.1 µM]
COC(=O)C(C(=O)Nc1cccc(C)n1)C1CCCCCC1 (stereo not drawn),-13%,0%,-4.5%,-4%,0%,-7%,6%,13%
COc1ccc(CCNC(=O)c2ccc(Cn3c(SCC(=O)NCCC(C)C)nc4cc5c(cc4c3=O)OCO5)cc2)cc1OC,5%,x,0.1%,x,-5%,x,x,u
Cc1ccc(N2C(=O)c3ccccc3NC2(C(=O)O)c2ccccc2)cc1Cl (stereo not drawn),42%[activator],0%,x,0%,x,x,-9%,x
Cc1ccc(C(=O)Nc2ccc(S(=O)(=O)NC3=NCCCCC3)cc2)c(C)c1,13%,x,x,-2%,x,4%,6%,15%
Cc1csc(N(C(=O)c2cccc(S(=O)(=O)N(C)C)c2)c2ccccc2)n1,8.9µM*,-13%,0.8%,3%,14%,3%,14%,u
COc1ccc(C(=O)NC2CCCc3c2cnn3-c2cc(F)cc(F)c2)c(OC)n1 (stereo not drawn),6%,-13%,x,0%,x,1%[46.1 µM],-9%,-8%[46.1 µM]
CCOC(=O)c1cc(C(C)(C)C)n(CCCN2CCOCC2)c1C,-2%,0%,x,0%,x,x,-7%,x
O=C(c1cccc(Cl)c1)N1CCC(C(=O)N2CCN(Cc3ccccc3)CC2)CC1,u,-7%,x,-7%,x,-13%,-15%,-9%
CCCCCCC(=O)Nc1nc(C)c(-c2csc(Nc3cccc(OC)c3)n2)s1,0%,-1%,-7.0%,-3%,10µM*,x,-8%,x
Cc1ccc(NC(=O)c2cnn(-c3ccccc3)c2C)cc1,-22%,-45%,x,-2%,x,x,3%,x
COc1ccccc1CNC(=O)c1cnc2ccccn2c1=O,-12%,-20%,-7.4%,-6%,-4%,x,8%,x
CC1CCCN(C(=O)CCCC(=O)N2CCCC(C)C2)C1 (stereo not drawn),-10%,12%,x,-3%,x,x,5%,x
COc1cnc(-c2ccccc2)nc1Oc1ccc(C(C)(C)C)cc1,-20%,5%,-5.6%,-17%,u,u,-10%,-7%
N#CCC(=O)N/N=C/c1ccc(Cl)cc1,10%,-5%,x,0%,x,-1%[46.1 µM],7%,2%
Cn1c(=O)cc(N)n(-c2ccccc2)c1=O,3%,4%,x,-2%,x,0%,-4%,0%
COc1cc(CNCc2cc(OC)c(OC)c(OC)c2)cc(OC)c1,u,-10%,x,1%,x,x,-2%,x
O=C(NC(=O)N1CCOCC1)c1ccccc1,0%,1%,-2.8%,14%,-3%,0%,8%,4%
CCCCN(C(=O)c1ccc([N+](=O)[O-])o1)c1c(N)n(CCCC)c(=O)[nH]c1=O,-2%,x,x,-1%,x,1%,-9%,0%
Cc1ccc(CCNC(=O)c2cc3c(s2)-c2ccccc2OC3)cc1,-15%,x,-2.4%,x,13µM*,-1%[46.1 µM],x,x
C/C(=N\NC(=S)NC1CCCCC1)c1ccc(C#N)cc1,-3%,11%,-2.5%,16µM*,u,1%,-7%,10%
CCCCN(CC)C(=O)CSc1nc2ccccc2c(=O)n1Cc1ccco1,-12%,x,-4.7%,x,-4%,x,x,u
Fc1cc(F)c(NC(=S)N2CCOCC2)c(F)c1,-17%,2%,x,-1%,x,2%&2%,-1%,3%
COc1ccccc1CCNS(=O)(=O)c1ccc(C(=O)O)n1C,6%,-5%,x,0%,x,-5%[46.1 µM],0%,12%
CCc1ccc(C2C(C(=O)Nc3ccc(Cl)cc3)=C(C)Nc3ncnn32)cc1 (stereo not drawn),-16%,x,-1.5%,x,u,-5%[46.1 µM],x,-1%[46.1 µM]
O=C1CC(c2cccc(Br)c2)C2=C(COC2=O)N1 (stereo not drawn),-16%,-2%,x,1%,x,-21%[46.1 µM],-32%,-1%
CN1/C(=C\C=C2/SC(=S)N(CC(=O)O)C2=O)C(C)(C)c2ccccc21,u,9%,x,0%,x,4%[46.1 µM],24%,3%
COc1cc(C2c3[nH]c4ccccc4c3CCN2Cc2cn(C)nc2C)ccc1F (stereo not drawn),-1%,-6%,x,0%,x,u,u,u
CCCCN(c1ccccc1)S(=O)(=O)c1cc2c3c(c1)C(C)C(=O)N3CCC2 (stereo not drawn),-21%,x,-8.3%,x,u,x,x,u
Cc1ccc(N)cc1-n1c(C)ccc1C,27%,7%,-3.2%,-1%,6%,-10%,-17%,1%
CCOc1ccc(/C(CCC(=O)O)=N/NC(=S)NC(C)C)cc1,-7%,x,x,0%,x,-29%[46.1 µM],10%,-14%
COc1ccc(Cc2c(N)nc(C)nc2N)cc1,0%,x,x,1%,x,-8%[46.1 µM],14%,2%[46.1 µM]
O=C(Nc1ccc(N2CCN(C(=O)c3ccco3)CC2)cc1)c1ccccc1Br,-9%,8%,x,1%,x,-17%[46.1 µM],4%,u
Clc1ccccc1C1CC(c2ccccc2)Nc2ncnn21 (stereo not drawn),-20%,-2%,5.1%,3%,6%,x,4%,x
COc1ccccc1Nc1nnc(SCC(=O)NC(=O)Nc2ccc3c(c2)OCCO3)s1,-3%,27%,-1.6%,6%,u,15%,6%,u
N#C/C(=C/c1ccccc1[N+](=O)[O-])c1nnc2n1CCCCC2,-7%,-2%,-2.4%,-5%,3%,17%,-1%,3%
COc1ccc(S(=O)(=O)N2CCOCC2)cc1NC(=O)CCCOc1ccccc1,4%,x,x,-8%,x,10%,-4%,9%
COc1ccc(NC(=O)CSc2nnc(-c3cnccn3)n2C)cc1OC,-3%,26%,x,12%,x,u,2%,-12%[46.1 µM]
# Following part.
SMILES,2A StopGo,NS1 inh,Cruzain inh Det,SARS PLpro yeast,Cruzain noTriton,MARV entry inh,RE007 growth inh,LASV entry inh
Cc1ccc(OCC(=O)N2N=C(C(F)(F)F)CC2(O)C(C)(C)C)cc1C (stereo not drawn),u,-5%,-6.9%,-23%,10%,u,u,u
O=C(CCn1nc(-c2ccc(Cl)cc2)c2ccccc2c1=O)NN1CCOCC1,-23%,6%,x,0%,x,-2%,-15%,-4%
Cc1cccc(C)c1-n1cccc1/C=C1\SC(=S)N(c2cccc(C(=O)O)c2)C1=O,3%,x,x,-27%,x,u,-19%,4%
Cc1ccc(C(=O)Nc2ccc(N3CCOCC3)nc2N2CCOCC2)cc1,-12%,-2%,x,1%,x,-4%[14.2 µM],2%,-7%
